StopGo reporter: FMDV 2A StopGo reporter, luciferase signal | Potency, µM (titrated, usually from 57.9 µM), for the others: at the top dose signal change, negative = less light | human cells with a luciferase reporter of 2A StopGo recoding; control for the full effect not named in the record | 1.2% of 410,000 active; active = well fitted falling curve with a large enough effect; inconclusive = small, poorly fitted or top-dose-only effect; inactive = no such curve, though single readings can be large or run the other way; tested in HEK293T cells; also: % is scaled to controls: 0 for no effect and ±100 for the full control effect; nearly all actives have a fitted effect of over 45% in size; luciferase light after 4 h
SARS PLpro yeast: inhibitors of SARS-CoV papain-like protease in yeast | S. cerevisiae expressing SARS-CoV PLpro, growth rescue; control for the full effect not named in the record | Potency, µM (series often up to 32.9 µM), for inactives: at the highest dose activity, positive = growth rescue | 0.19% of 330,000 active; active means well fitted rising curve with a large enough effect; inconclusive means small, poorly fitted or top-dose-only effect; inactive means no such curve, though single readings can be large or run the other way; also: 0% is about no effect; nearly all actives have a fitted effect of over 55% in size; growth read by luminescence after 48 h
Cruzain inh noDet: blocks cruzain activity in detergent-free assay | P25779 | purified cruzain, Z-FR-AMC fluorescence, no detergent | Potency, µM, without a hit: max response, negative = inhibition, hits mostly inhibitors | 2.3% of 200,000 active;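 also: plate controls were enzyme without inhibitor for no effect and buffer without enzyme for full effect; nearly all actives have a fitted effect of over 40% in size; top concentration of the series not given in the record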
Target sequence (P25779 123-467 limits assumed): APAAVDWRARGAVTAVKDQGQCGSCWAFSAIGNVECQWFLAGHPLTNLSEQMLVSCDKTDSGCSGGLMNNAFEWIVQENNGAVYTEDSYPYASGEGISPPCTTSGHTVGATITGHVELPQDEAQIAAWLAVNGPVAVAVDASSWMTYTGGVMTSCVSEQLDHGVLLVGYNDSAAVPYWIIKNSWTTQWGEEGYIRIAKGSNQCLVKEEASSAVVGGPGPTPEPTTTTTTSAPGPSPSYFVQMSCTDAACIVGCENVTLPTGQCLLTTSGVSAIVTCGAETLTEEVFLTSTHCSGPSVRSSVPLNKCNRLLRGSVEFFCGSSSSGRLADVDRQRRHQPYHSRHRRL
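Detergent-free condition (0.00005% Triton X-100) in acetate buffer pH 5.5 with DTT. 1.5 nM enzyme and compound were pre-mixed 15 min, then 2 uM Z-FR-AMC substrate added; reaction progress from fluorescence change between first and third reads (60 s).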
RE007 growth inh: less growth of the S. pombe RE007 Vpr strain; Potency, µM (titrated, usually from 92.2 µM), for inactives: top-dose activity change, negative = less growth; S. pombe RE007 Vpr strain, BacTiter-Glo ATP luminescence, 24 h; control for the full effect not named in the record; 0.21% of 360,000 active; active = well fitted falling curve with a large enough effect; inconclusive = small, poorly fitted or top-dose-only effect; inactive = no such curve, though single readings can be large or run the other way;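 also: % is scaled to controls: 0 for no effect and ±100 for the full control effect; nearly all actives have a fitted effect of over 50% in size; the assay follows cell death caused by Vpr and the record does not say whether a fall means rescue or toxicity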
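Fission yeast RE007 carrying one integrated HIV-1 vpr copy, seeded at OD 0.01 in PMG+AL medium with 23 nL pinned compound. Grown 24 h at 30 degrees; viability read by BacTiter-Glo luminescence after 5 min.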
NS1 function inh: inhibitors of influenza NS1 protein function; 0.4% of 270,000 active; AID 2326; Potency, µM (titrated, usually from 46.1 µM), for the others: top-dose activity, positive = more growth; S. cerevisiae slowed by influenza A NS1, growth recovery by OD600; active means well fitted rising curve with a large enough effect; inconclusive means small, poorly fitted or top-dose-only effect; inactive means no such curve, though single readings can be large or run the other way; also: nearly all actives have a fitted effect of over 50% in size
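Growth recovery, yeast-based: influenza A NS1 expressed in S. cerevisiae causes slow growth, and suppressors are detected by OD600. The parent strain without NS1 is used as positive control.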
LASV entry inh: Lassa virus entry inhibition. Lassa virus pseudotype entry inhibition, cell reporter; control for the full effect not named in the record. Potency, µM (highest dose often 37.9 µM), inactives show top-dose activity change, negative = inhibition, most hits filed as inhibitors. 1.2% of 300,000 active. AID 540256; active means well fitted inhibition curve with a large enough effect; inconclusive means small, poorly fitted or top-dose-only effect, or effect the other way; inactive means flat fitted curve, though single readings scatter; tested in HEK293 cells; also: % is scaled to controls: 0 for no effect and ±100 for the full control effect; nearly all actives have a fitted effect of over 50% in size; luciferase read-out
Cruzain Triton: inhibitors of Trypanosoma cruzi cruzain with detergent; Potency, µM, without a hit: max response, negative = inhibition, actives largely listed as inhibitors; purified cruzain, Z-FR-AMC fluorescence, 0.01% Triton; 0.43% of 200,000 active; AID 1478;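 also: plate controls were neutral wells for no effect and buffer without enzyme for full effect; nearly all actives have a fitted effect of over 40% in size; top concentration of the series not given in the record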
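Purified cruzain (1.5 nM final) was preincubated with compounds for 15 min at room temperature in 100 mM sodium acetate pH 5.5, 5 mM DTT, 0.01% Triton X-100. Reaction started with 2 uM Z-FR-AMC; AMC fluorescence change over 60 s gave activity.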
MARV entry inh: blocks Marburg virus binding to or entry into cells | AID 540276 | 1.8% of 300,000 active | Marburg virus pseudotyped entry inhibition, cell reporter; control for the full effect not named in the record; about a third of the inactives were read at about 46 µM | Potency, µM (series often up to 37.8 µM), for the others: at the top dose activity change, negative = inhibition, usual class: inhibitors; active = well fitted inhibition curve with a large enough effect; inconclusive = small, poorly fitted or top-dose-only effect, or effect the other way; inactive = flat fitted curve, though single readings scatter; tested in HEK293 cells; about a fifth of its hits are not listed in these tables; also: % is scaled to controls: 0 for no effect and ±100 for the full control effect; luciferase read-out
Numbers without * were called inactive; ? = inconclusive; nt = no result given; & = joins results of further samples; [ ] = dose if it differs, or a comment. Unless noted, calls follow the shape of the dose curve; as a rule, active = well fitted curve in the direction sought with a large enough effect; inconclusive = small, poorly fitted or top-dose-only effect, or another doubt; inactive = no such curve, though single readings can be large; an effect the other way counts as inactive or inconclusive. Potency is read from the fitted curve at half-maximal effect.

SMILES	StopGo reporter	SARS PLpro yeast	Cruzain inh noDet	RE007 growth inh	NS1 function inh	LASV entry inh	Cruzain Triton	MARV entry inh
COc1ccc(/C(N)=N/OC(=O)Cc2ccccc2[N+](=O)[O-])cc1	27%	-5%	-12%	1%	-3%	0%	-3.1%	?
O=C(NCc1ccco1)c1ccc(C(=O)NCc2ccco2)s1	2%	-7%	-7%	5%	7%	-6%	1.7%	-1%
O=C(NN=Cc1ccccc1OC(F)F)c1cccc(S(=O)(=O)N2CCCC2)c1	-3%	-4%	nt	4%	nt	0%	nt	8%
O=C(O)CSc1nnc(COc2ccc([N+](=O)[O-])cc2)n1-c1ccccc1	1%	4%	nt	7%	4%	26%	nt	?
CCn1c(SCC(=O)NC(=O)NC(C)(C)C)nc2ccccc21	?	-5%	nt	3%	nt	8%	nt	-17%[46.1 µM]
CCN(c1ccccc1)S(=O)(=O)c1ccc(NC(=O)c2cc(=O)c3c(C)cc(C)cc3o2)cc1	-3%	nt	-3%	nt	nt	10%[46.1 µM]	-0.4%	15%[46.1 µM]
COCCCNC(=O)[C@H](Cc1c[nH]c2ccccc12)NC(=O)OCc1ccccc1	-3%	1%	nt	10%	-2%	-20%[46.1 µM]	nt	-5%[46.1 µM]
N=c1c(S(=O)(=O)c2ccccc2)cc2c(=O)n3ccccc3nc2n1CC1CCCO1 (stereo not drawn)	4%	3%	?	-17%	-8%	3%	32µM*	3%
O=S1(=O)CCC(NS(=O)(=O)c2cccc3cccnc23)C1 (stereo not drawn)	18%	3%	-2%	2%	2%	2%	1.1%	0%
O=C(NCC1CCCO1)c1ccc2c(=O)n(CCc3ccccc3)c(=O)[nH]c2c1 (stereo not drawn)	-17%	12%	?	-12%	8%	-6%	-2.9%	-15%
Cc1snc(S(=O)(=O)/C(C#N)=N/Nc2cccc(C(F)(F)F)c2)c1C#N	28%	17%	-13%	-16%	20%	5%	?	0%
COc1cc(NC(=O)Cc2ccccc2)ccc1NC(=O)c1ccco1	69%[activator]	2%	0%	7%	-8%	0%	-5.4%	25%
Cc1cccc(-n2ncc3c(N4CCN(CCO)CC4)ncnc32)c1	42%[activator]	nt	-4%	nt	nt	12%[46.1 µM]	1.1%	nt
CCOc1ccccc1NC(=O)COC(=O)c1cc(C(=O)OC)cc([N+](=O)[O-])c1	-6%	-7%	-3%	-12%	6%	9%	-2.9%	-2%
Cc1nn(Cc2ccc(F)cc2)c(Cl)c1/C=N/NC(=O)c1cccnc1	-20%	7%	-3%	8%	-9%	-1%	0.9%	-21%
COc1ccc(-c2cc(C(=O)N3CCN(S(=O)(=O)c4ccc(C)cc4)CC3)[nH]n2)cc1	-11%	3%	nt	0%	20%	nt	nt	nt
CC(C)C(=O)Nc1cccc(NC(=O)c2cccc(Br)c2)c1	9%	0%	nt	-15%	nt	-8%[46.1 µM]	nt	?
Cc1cc(N2C(=O)C3CCCN3C2c2sccc2C)no1 (stereo not drawn)	-15%	8%	-4%	0%	1%	2%	0.7%	-18%
Cc1ccc(OCCOC(=O)c2sc(=S)n(C)c2C)cc1	1%	1%	nt	-18%	-1%	11%	nt	-1%[46.1 µM]
Cc1cc(OCCCN2CCCC2)ccc1Cl	10%	-7%	nt	-9%	0%	nt	nt	nt
Nc1nnc(Cc2ccc(Cl)cc2)s1	-13%	3%	-11%	-5%	-7%	?	0.0%	3%
CCOc1ccc(NC(=O)CSc2nccn2C2CCCC2)cc1	22%	nt	-1%	nt	nt	-9%[46.1 µM]	-0.1%	nt
Cc1cccn2c(=O)cc(COc3cccc(NC(=O)c4ccccc4F)c3)nc12	-29%	nt	4%	nt	nt	5%[46.1 µM]	3.9%	nt
Cc1cc(=O)n2[nH]c(-c3cccnc3)nc2n1	nt	-9%	-3%	nt	8%	nt	8.6%	3%
O=C(c1ccc(Cl)c(S(=O)(=O)N2CCCC2)c1)N1CCN(c2ccccc2F)CC1	-3%	0%	nt	-3%	2%	?	nt	-16%[46.1 µM]

Rewritten with two lines to a compound: 2 of the compounds above
Order of values: StopGo reporter	SARS PLpro yeast	Cruzain inh noDet	RE007 growth inh	NS1 function inh	LASV entry inh	Cruzain Triton	MARV entry inh
Cc1nn(Cc2ccc(F)cc2)c(Cl)c1/C=N/NC(=O)c1cccnc1
    -20%	7%	-3%	8%	-9%	-1%	0.9%	-21%
Cc1cc(N2C(=O)C3CCCN3C2c2sccc2C)no1 (stereo not drawn)
    -15%	8%	-4%	0%	1%	2%	0.7%	-18%

Remaining list, next part:
SMILES	StopGo reporter	SARS PLpro yeast	Cruzain inh noDet	RE007 growth inh	NS1 function inh	LASV entry inh	Cruzain Triton	MARV entry inh
O=c1cc(C=NNc2ccc([N+](=O)[O-])cc2)[nH]c(=O)[nH]1	-16%	nt	nt	-22%	nt	4%	nt	21%
CC(C)(C)OC(=O)N1CCC[C@H]1C(=O)N/N=C/c1ccc2ncccc2c1	18%	0%	nt	0%	-2%	18%	nt	29%
O=C(COc1ccccc1Cl)Nc1nc2c(s1)CCCC2	39%[activator]	nt	-5%	nt	nt	?	-9.6%	nt
O=C(CCNC(=O)c1ccc([N+](=O)[O-])cc1)NC1CCCCCC1	10%	-3%	nt	-26%	nt	5%	nt	0%
O=C(COc1ccc(S(=O)(=O)N2CCOCC2)cc1)Nc1ccccc1C(F)(F)F	-8%	1%	2%	-10%	3%	4%	1.7%	13%
O=C(CSc1nnc(-c2ccncc2)o1)c1ccc2c(c1)OCCO2	-10%	1%	nt	-12%	1%	0%	nt	-28%[46.1 µM]
O=C(Nc1ccnn1C1CCN(C2CCCC2)CC1)c1ccccc1	3%	26%	nt	-8%	8%	4%	nt	6%
CCc1nc(SCC(=O)Nc2c(C)n(C)n(-c3ccccc3)c2=O)n[nH]1	-12%	4%	0%	7%	-2%	-22%	3.3%	23%
O=C(c1cc(-c2ccccn2)nc2c(Cl)cccc12)N1CCN(C(=O)C2CCCO2)CC1 (stereo not drawn)	-23%	3%	?	-11%	-33%	19%	-2.9%	?
Cc1cccn2c(=O)c3cc(C(=O)NC4CCCCC4)c(=N)n(CCN4CCOCC4)c3nc12	-9%	0%	nt	-8%	0%	nt	nt	nt
O=C(Nc1nc2c(s1)CCCC2)c1cccs1	-46%	-21%	0%	?	-134%	?	-6.9%	?
O=C(CCNc1ccc(F)cc1)c1ccco1	19%	-11%	-6%	6.3µM*	-8%	0%	5.2%	6%
Cc1nc(SCC(N)=O)[nH]c(=O)c1CCC(C)C	-21%	2%	3%	1%	8%	8%	3.6%	7%
CCCCn1nc(C(=O)N(C)CC(=O)Nc2ccc(F)c(F)c2F)ccc1=O	-9%	-2%	nt	1%	nt	8%	nt	15%
Cc1ccc(C(c2sc3nc(C)nn3c2O)N2CC(C)OC(C)C2)cc1 (stereo not drawn)	12%	2%	16%	-2%	1%	-7%	-0.3%	5%[46.1 µM]
CCOCCCNC(=O)c1ccc(NC(=O)C2=CSCCO2)cc1	37%[activator]	1%	nt	-6%	-13%	nt	nt	nt
Cc1cccc(C(=O)Nc2cc3c(cc2N2CCCCC2)n(C)c(=O)c(=O)n3C)c1	-17%	nt	2%	nt	nt	2%[46.1 µM]	-0.3%	-5%[46.1 µM]
CC(=O)O[C@H]1C(=O)[C@@]2(C)C([C@H](OC(=O)c3ccccc3)[C@]3(O)C[C@H](O)C(C)=C1C3(C)C)[C@]1(OC(C)=O)CO[C@@H]1C[C@H]2O (stereo partly drawn)	-15%	0%	nt	-1%	0%	nt	nt	nt
CSCc1ccc(C(=O)Nc2cccc(C)c2C)cc1	15%	5%	-4%	6%	14%	1%	-0.2%	?
CCCCNC(=S)Nc1ccc(C(F)(F)F)cc1	-6%	-4%	nt	-7%	nt	2%	nt	?
O=C(CCN1C(=O)c2ccccc2S1(=O)=O)Nc1ccc(F)c(F)c1F	-22%	-6%	nt	-10%	nt	1%	nt	-1%[46.1 µM]
O=C1/C(=C/c2ccccn2)SC(=S)N1Nc1ncc(C(F)(F)F)cc1Cl	?	nt	nt	-17%	nt	-30%[46.1 µM]	nt	2%[46.1 µM]
COc1ccc(-c2cc(=O)c3c(OC)c(OC)c(OC)c(OC)c3o2)cc1OC	11%&0%	0%&11%	?	10%[18.4 µM]	-18%	-26%	-5.8%&-5.5%	-49%&-49%&-49%&-49%&-49%

Of the compounds above, these contain a Cl atom.
SMILES	StopGo reporter	SARS PLpro yeast	Cruzain inh noDet	RE007 growth inh	NS1 function inh	LASV entry inh	Cruzain Triton	MARV entry inh
Cc1nn(Cc2ccc(F)cc2)c(Cl)c1/C=N/NC(=O)c1cccnc1	-20%	7%	-3%	8%	-9%	-1%	0.9%	-21%
Cc1cc(OCCCN2CCCC2)ccc1Cl	10%	-7%	nt	-9%	0%	nt	nt	nt
Nc1nnc(Cc2ccc(Cl)cc2)s1	-13%	3%	-11%	-5%	-7%	?	0.0%	3%
O=C(c1ccc(Cl)c(S(=O)(=O)N2CCCC2)c1)N1CCN(c2ccccc2F)CC1	-3%	0%	nt	-3%	2%	?	nt	-16%[46.1 µM]
O=C(COc1ccccc1Cl)Nc1nc2c(s1)CCCC2	39%[activator]	nt	-5%	nt	nt	?	-9.6%	nt
O=C(c1cc(-c2ccccn2)nc2c(Cl)cccc12)N1CCN(C(=O)C2CCCO2)CC1 (stereo not drawn)	-23%	3%	?	-11%	-33%	19%	-2.9%	?
O=C1/C(=C/c2ccccn2)SC(=S)N1Nc1ncc(C(F)(F)F)cc1Cl	?	nt	nt	-17%	nt	-30%[46.1 µM]	nt	2%[46.1 µM]

Screening results as filed in PubChem.
